High-throughput results (PubChem BioAssay)
RanGTP-Impb inh: disruptors of Ran-importin-beta complex formation – biochemical, FRET, CFP-Ran, YFP-importin-beta, homogeneous, primary screen; cell-free CFP-Ran/YFP-importin-beta FRET ratio; inhibition, % (no concentration beside the values); actives 1.1% (n = 300,000); AID 2216;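 active = most replicates above 15%; inconclusive = exactly half above 15%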;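 note: 0% = DMSO wells and 100% = Ran loaded with GDP instead of GTP; wells of about 40 µL received 100 nL stock; the first replicate is given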
HNF4A DNA FP: change in binding of human HNF4 alpha to DNA. P41235. HNF4a-FITC DNA binding, fluorescence polarization, 1 h. activity change, % at 10 µM. actives 0.3% (n = 360,000); in the data active = activity change above about 30%, passing the limit was not always enough;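 note: controls were the assay level and a saturating level of protein; the project sought stronger binding though the title names inhibitors; some compounds called inactive have numbers as strong as hits; positive values seem to mean higher polarization but the record does not say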
LANA-H2B inh: blocks KSHV LANA binding to histone H2A/H2B; Q9QR71; cell-free LANA-H2A/H2B peptide, fluorescence polarization; inhibition, % (no concentration beside the values); actives 0.6% (n = 320,000); AID 2629; in the data active = inhibition mostly above about 10%, no sharp cut-off; inactive = mostly below about 6.7%;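 note: stock transfer was 7.5 nL into about 10 µL; 0% = median of vehicle wells and 100% = median of positive control wells; one replicate is shown; the record names a cut of 25% in any replicate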
Target sequence (Q9QR71 whole entry, looked up): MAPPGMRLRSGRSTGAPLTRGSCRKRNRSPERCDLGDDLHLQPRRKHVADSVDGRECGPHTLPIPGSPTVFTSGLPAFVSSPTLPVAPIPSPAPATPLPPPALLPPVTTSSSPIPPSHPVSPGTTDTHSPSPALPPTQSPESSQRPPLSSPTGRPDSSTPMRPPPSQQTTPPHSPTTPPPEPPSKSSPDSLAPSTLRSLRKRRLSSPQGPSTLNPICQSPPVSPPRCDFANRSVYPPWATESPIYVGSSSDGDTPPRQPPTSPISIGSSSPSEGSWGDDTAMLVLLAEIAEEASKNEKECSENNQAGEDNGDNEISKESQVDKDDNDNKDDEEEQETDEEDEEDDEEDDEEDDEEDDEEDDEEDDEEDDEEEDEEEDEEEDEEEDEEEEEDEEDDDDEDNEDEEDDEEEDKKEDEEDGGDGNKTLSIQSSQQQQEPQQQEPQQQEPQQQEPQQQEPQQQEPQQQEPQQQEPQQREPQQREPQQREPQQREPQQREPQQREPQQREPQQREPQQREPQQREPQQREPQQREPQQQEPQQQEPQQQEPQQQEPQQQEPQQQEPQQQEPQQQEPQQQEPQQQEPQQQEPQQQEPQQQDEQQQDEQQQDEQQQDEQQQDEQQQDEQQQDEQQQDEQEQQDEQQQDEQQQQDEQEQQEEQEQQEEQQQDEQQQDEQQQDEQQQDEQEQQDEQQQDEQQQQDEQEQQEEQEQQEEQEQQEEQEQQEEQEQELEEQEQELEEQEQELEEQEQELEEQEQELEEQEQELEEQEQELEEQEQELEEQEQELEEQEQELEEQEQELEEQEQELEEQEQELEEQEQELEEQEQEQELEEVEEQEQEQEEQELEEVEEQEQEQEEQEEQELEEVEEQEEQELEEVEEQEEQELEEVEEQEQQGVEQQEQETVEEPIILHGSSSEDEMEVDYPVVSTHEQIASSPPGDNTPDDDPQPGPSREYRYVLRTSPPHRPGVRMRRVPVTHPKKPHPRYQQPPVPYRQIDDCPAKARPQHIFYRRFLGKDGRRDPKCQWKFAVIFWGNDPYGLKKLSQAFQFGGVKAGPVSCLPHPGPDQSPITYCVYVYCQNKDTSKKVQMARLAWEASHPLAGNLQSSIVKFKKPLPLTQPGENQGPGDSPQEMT
Calb FLC: affects C. albicans growth with fluconazole; C. albicans CaCi-2 (fluconazole-resistant clinical isolate) + fluconazole, Alamar Blue growth, 48 h; growth inhibition, % (no concentration beside the values); actives 0.57% (n = 300,000);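 active = most replicates above 75%; inconclusive = exactly half above 75%; inactive = most below 75%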;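 note: all wells also contain fluconazole at 8 µg/ml as a sub-toxic cotreatment; 0% = median of DMSO wells and 100% = median of geldanamycin control wells; wells of about 8 µL received 7.5 nL stock; the first replicate is given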
B2AR ag: agonists of human beta-2 adrenergic receptor inducing internalization; P07550; Am2.2-beta2AR cells, FAP receptor internalization, flow cytometry; reference of the scale not given here; response, % (no concentration beside the values); actives 0.43% (n = 340,000); AID 504454;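 active = response above a set limit, near 3 SD of response in nonfluorescent compounds, cut at about 42% in these data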;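 note: stock transfer was 100 nL into about 11 µL; a reference agonist was the positive control; negative values mostly stem from fluorescent compounds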
ALR H2O2 inh: blocks human ALR sulfhydryl oxidase activity | P55789 | inhibition, % (no concentration beside the values) | AID 485317 | actives 3.8% (n = 290,000) | purified ALR, DTT oxidation, H2O2 HRP-luminol luminescence;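 active = mean and each replicate at 75% or more; inconclusive = only one of the two met; inactive = neither met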;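 note: stock transfer was 7.5 nL into about 7.5 µL; 0% = neutral wells and 100% = wells with inactivated enzyme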
Vif TR-FRET: HIV-1 Vif–A3G interaction blockers – biochemical, TR-FRET, GST-Vif 1-94, biotin-A3G peptide, dose response retest, primary screen (AID 1117319); TR-FRET GST-Vif / biotin-A3G peptide binding; higher % means a stronger effect; test concentration not given here; strong numbers were not always called active; one-dose inhibition, %; IC50 in µM for titrated hits; actives 0.57% (n = 260,000);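 active = above the screen mean plus three standard deviations and confirmed in dose response; inconclusive = results disagree or hit not tested in dose response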;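 note: Vif residues 1-94 fused to GST binding biotinylated APOBEC3G peptide 110-148; 0% = full assay without inhibitor and 100% = GST in place of GST-Vif; retest series ran down from 100 µM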
* hit, by the source's call; ? = inconclusive; nt = not tested or not shown; & = joins results of further samples.

nr	Compound	HNF4A DNA FP	ALR H2O2 inh	LANA-H2B inh	Calb FLC	Vif TR-FRET	RanGTP-Impb inh	B2AR ag
1	CC1CCCCC12NC(=O)N(CC(=O)OCc1cccc(F)c1)C2=O (centres undefined)	0.6	-0.5	-0.4	nt	-1.2%	nt	-1.5
2	Cc1ccc(C(=O)N/C(=C\c2ccc(-c3ccc(Cl)cc3)o2)C(=O)NCCCN(C)C)cc1	2.8	nt	1.9	?	nt	-1.6	28.3
3	C/C(=N\NC(=O)C1CCCN(S(=O)(=O)c2ccccc2)C1)c1cccnc1 (centres undefined)	0.8	-11.5	-0.8	-7.5	31.6%	-3.3	5.9
4	O=C(/C=C/c1ccccn1)c1cc(Cl)cc(Cl)c1O	-4.6	8.3	5.0	14.8	nt	0.3	32.1
5	Cc1ccc(NC(=O)C(C)N2C(=O)C3C4CC(C(Br)C4Br)C3C2=O)cc1 (centres undefined)	-1.7	-15.2	-0.3	5.9	-4.2%	-2.2	0.0
6	O=C(NNC(=S)Nc1cccc2ccccc12)c1cccc(Br)c1	-2.2	64.2	1.8	-0.7	5.3%	7.8	10.8
7	CCn1c(CSc2nnc3ccccn23)nc2cc(C(=O)O)ccc21	-2.9	-23.5	-1.3	-10.0	?	?	3.7
8	COc1ccc(C(CNc2ncnc3sc(C)c(C)c23)N(C)C)cc1 (centres undefined)	0.7	2.8	2.4	2.3	nt	2.1	-6.3
9	CCOc1cc(N2CCOCC2)c(OCC)cc1NC(=O)COC(=O)c1cc(C)oc1C	-1.8	-13.4	3.3	23.8	11.6%	2.9	9.3
10	COc1cc(OC)cc(C(=O)NCCCNC(=O)c2cccnc2)c1	-4.3	-0.8	-0.2	10.7	nt	0.7	12.7
11	COCCn1cc(C(=O)NCCCOC(C)C)c2c3ccccc3n(C)c2c1=O	1.2	-15.3	-2.3	-2.5	-1.2%	2.4	7.9
12	Cc1ccccc1-c1noc(CCC(=O)NCc2ccco2)n1	9.3	7.9	1.8	25.1	6.4%	4.0	3.9
13	CC(OC(=O)CNS(=O)(=O)/C=C/c1ccccc1)C(=O)Nc1ccc(S(=O)(=O)N2CCCC2)cc1 (centres undefined)	0.3	nt	0.9	-3.1	nt	-0.2	2.0
14	CN(c1ccc(OCC(=O)OCC(=O)NCc2ccco2)cc1)S(=O)(=O)c1ccc2ccccc2c1	-3.7	nt	nt	-11.0	-2.7%	4.2	5.4
15	O=S1CC/C(=N\O)c2ccccc21 (centres undefined)	-0.7	0.5	4.2	10.4	-0.9%	2.3	-5.2
16	COc1ccc(C(=O)N/N=C(/C)c2cccc(NC(=O)c3ccccc3F)c2)cc1	-0.1	-2.0	-5.8	-3.4	nt	3.2	0.3
17	CCOc1ccc(NC(=O)CC2C(=O)N(c3ccccc3)C(=O)N2Cc2ccco2)cc1 (centres undefined)	-3.1	47.8	-2.2	1.3	14.5%	3.4	0.8
18	N=C1C(c2ccccc2)=C(O)CN1CCO	3.1	15.9	5.3	-6.5	-4.8%	-3.5	-8.7
19	Cc1ccc(C)c(C(=O)NC(C)CCc2ccccc2)c1 (centres undefined)	-3.2	-10.1	2.2	-26.4	-0.4%	?	2.0
20	C[C@H](NC(=O)c1ccco1)C(=O)N1CCCC1	-2.1	-13.2	-3.3	7.0	nt	-2.3	12.9
21	CCCn1nc(NS(=O)(=O)c2ccccc2[N+](=O)[O-])c2cc3ccccc3nc21	1.2	66.1	3.2	0.8	-4.4%	?	4.8
22	CSc1nnc(-c2cccs2)n1-c1ccccc1	3.5	-0.3	0.6	35.3	-10.1%	-5.5	-2.4
23	COc1ccc(NC(=O)COC(=O)c2cccc(S(=O)(=O)N(C)C)c2)cc1	-5.2	nt	nt	nt	4.2%	nt	5.4
24	N#CCCN1CCN(C(=S)c2ccc(-c3cc(Cl)ccc3Cl)o2)CC1	-0.2	-8.6	-0.4	-6.2	5.2%	-5.2	-10.3
25	CCN(CC)C(=O)COc1ccc(N(C)S(=O)(=O)c2ccc(NC(C)=O)cc2)cc1	0.2	-7.4	3.9	1.0	10.7%	1.5	-0.1
26	CC(OC(=O)CNS(=O)(=O)c1ccc(C#N)cc1)C(=O)Nc1cccc(C#N)c1 (centres undefined)	-2.2	4.0	0.4	1.8	-0.5%	?	-7.1
27	CN(CC(=O)N1CCCCC1)S(=O)(=O)c1ccc(Cl)cc1	-1.5	3.3	0.7	-28.0	-2.2%	0.7	-2.9
28	C#CCOc1c(/C=C\c2nc(O)c([N+](=O)[O-])c(=O)[nH]2)cc(Br)cc1OC	-1.1	nt	1.1	-8.8	nt	-3.2	-4.9
29	Cc1c(NC(=O)CSc2nnc(N)s2)c(=O)n(-c2ccccc2)n1C	-3.5	3.5	0.1	7.9	nt	-2.3	-6.4
30	CCN(CC)C(=O)/C(=C/c1ccc(F)cc1)NC(C)=O	-2.8	nt	-7.4	-6.6	-6.8%	5.1	-9.8

nr	Compound	HNF4A DNA FP	ALR H2O2 inh	LANA-H2B inh	Calb FLC	Vif TR-FRET	RanGTP-Impb inh	B2AR ag
31	Cc1nc(SCC(=O)NC2CCCCC2C)c(C#N)c(C)c1C (centres undefined)	-0.6	-0.3	1.6	nt	1.0%	nt	-1.8
32	COc1ccccc1Cc1noc(-c2cc(Cl)ccc2OC)n1	3.8	-4.0	-2.1	-20.4	2.3%	1.9	-14.5
33	CCSc1nnc(NC(=O)c2cc3c(s2)CCCC3)s1	3.2	3.0	-3.6	5.2	0.7%	0.6	2.5
34	CC(C)C(=O)NNC(=O)c1ccccn1	1.6	0.7	5.5	-2.2	11.7%	-2.4	6.3
35	COc1ccc(-c2nc(SC)n(C(=O)c3ccco3)n2)cc1	-1.9	-4.2	-2.5	-7.1	-0.8%	1.3	0.2
36	O=C(CSc1ccc(-c2cccnc2)nn1)Nc1ccc(F)cc1	2.3	-4.0	-12.6	-5.2	nt	3.6	-1.8
37	Cc1[nH]c2ccccc2c1C(=O)CSc1nc2cc(S(=O)(=O)N3CCCCC3)ccc2o1	4.4	-8.0	0.0	-5.2	-3.1%	-0.9	3.6
38	COc1ccccc1CNC(=O)C1CCCC1	2.1	1.6	-1.8	-8.6	nt	-2.1	4.0
39	Cc1oc(-c2ccccc2F)nc1CS(=O)(=O)CC(=O)NCCCN1CC(C)CC(C)C1 (centres undefined)	1.6	-9.5	-1.2	-9.5	nt	2.7	10.0
40	NNC(=O)CSc1cccc2cccnc12	-3.7	31.0	4.3	-3.0	24.0%	1.2	0.2
41	C[C@@H]1CC=C[C@H]2[C@H]1C(=O)N(Cc1ccccc1)[C@H]2c1ccc(-c2ccoc2)cc1F	0.0	15.4	0.4	-21.9	?	0.5	16.3
42	O=C(CCCc1ccccc1)NCCc1ccccc1	0.3	-4.8	1.6	-0.2	nt	-1.2	-5.4
43	Cn1c(=O)c2c(ncn2CC(=O)OCC(=O)c2ccc(F)c(F)c2)n(C)c1=O	-0.6	-5.1	-3.8	6.4	1.5%	0.1	-0.6
44	Cc1ccc(C(=O)OCC(=O)N(C)C2CCS(=O)(=O)C2)cc1S(=O)(=O)N1CCOCC1 (centres undefined)	-1.1	-4.6	7.5	-5.0	4.4%	7.9	1.5
45	O=C(NCc1cc(C(F)(F)F)ccc1Cl)c1cccc2c1C(=O)c1ccc(N3CCOCC3)cc1S2(=O)=O	25.4	3.2	-0.4	nt	nt	nt	28.4
46	O=C1c2cccc(OCC(=O)N3CCCc4ccccc43)c2CCN1Cc1ccccc1	-1.7	-7.9	0.3	44.9	nt	2.7	-0.8
47	O=C(Nc1oc2ccccc2c(=O)c1-c1ccc(Cl)cc1)c1ccco1	4.6	15.0	1.7	60.7	4.3%	2.1	2.6
48	O=C(OCCCOC(=O)c1ccc(O)cc1)c1ccc(O)cc1	-2.3	-15.9	0.7	-2.0	nt	-0.5	5.8
49	Cc1oc(-c2ccccc2Cl)nc1CS(=O)(=O)CC(=O)NCCN1CCOCC1	0.3	93.4*	-0.4	0.5	nt	-1.1	0.8
50	C/C(=N/NC(=O)CNC(=O)COc1cccc(C)c1)c1ccco1	-0.1	-8.1	-3.3	-4.6	-5.5%	2.7	-1.7
51	CCOc1ccc(-c2nc[nH]c2[N+](=O)[O-])cc1	-3.3	-1.2	1.7	-22.9	7.2%	4.1	4.3
52	CCC(=O)Nc1ccc(C(=O)n2ccc(C)n2)cc1	-0.2	0.0	0.1	-4.6	1.7%	0.9	1.6
53	NS(=O)(=O)c1ccc(CCNC(=O)COC(=O)C2CCCN2C(=O)c2cccs2)cc1 (centres undefined)	9.4	28.2	3.0	15.3	-0.2%&-4.9%	0.8	-0.4
54	COCCNC(=O)C1CC(c2cccc(F)c2)=NO1 (centres undefined)	-1.5	-4.2	0.8	3.2	-1.1%	0.4	-7.1
55	COc1ccc(C2CC(c3ccccc3)=NN2C(=O)c2ccc(Cl)c([N+](=O)[O-])c2)cc1 (centres undefined)	-2.5	-4.7	1.3	29.8	-4.5%	1.5	1.6
56	CN(Cc1nc2ccccc2n1C)S(=O)(=O)c1ccc(F)cc1	-0.5	-0.7	-6.7	nt	-0.2%	nt	8.2
57	COc1cccc(/C=N\NC(=O)c2ccc(Cn3cc(Br)c([N+](=O)[O-])n3)o2)c1O	1.2	-8.2	3.6	102.4*	6.4%	-1.0	-5.3
58	CN(c1ccc(F)cc1)S(=O)(=O)c1ccc(Cl)c(C(=O)Nc2ccncc2)c1	0.2	-8.2	-4.4	4.4	2.0%	1.6	19.6
59	CCCOc1ccc(-c2cc(C(=O)NCC3CCCO3)c3ccccc3n2)cc1 (centres undefined)	-4.6	-11.1	8.4	-10.6	-3.6%	nt	-10.7
60	Cc1cc(C)n(-c2ccc(C(=O)Nc3nnc(C)s3)cc2)n1	0.6	-1.2	2.9	-2.0	3.3%	0.3	-4.3

nr	Compound	HNF4A DNA FP	ALR H2O2 inh	LANA-H2B inh	Calb FLC	Vif TR-FRET	RanGTP-Impb inh	B2AR ag
61	Cc1cc(C)c(NC(=O)CN2CCC(NC(=O)NC3CCCCC3)CC2)c(C)c1	nt	-5.4	2.9	-12.3	2.3%	2.3	nt
62	Cc1cc(C)c(C(=O)N2CCCC(Nc3ccc(C)c(C)c3)C2)o1 (centres undefined)	4.5	99.3*	-1.6	13.2	nt	5.7	3.5
63	O=c1[nH]c2cc(Cl)c(Br)cc2o1	1.3	nt	nt	nt	-1.6%	nt	-1.9
64	COc1ccc(C(=O)C2CCCN(C(=O)c3ccc(F)cc3)C2)cc1OC (centres undefined)	-2.1	-1.4	1.9	7.8	nt	-3.0	-2.1
65	CCOc1ccc(NC(=O)C2CCCN2S(=O)(=O)c2ccc(OCC)cc2)cc1 (centres undefined)	10.8	-3.7	-6.2	10.7	nt	-0.8	3.6
66	CC(=O)c1ccc(OC(=O)COc2ccccc2Cl)cc1	2.0	nt	-3.5	-1.5	nt	2.4	1.0
67	COc1ccc(C(=O)NC(=S)Nc2ccc(CN3CCCCC3)cc2)cc1Cl	-3.9	13.1	3.4	-4.5	3.6%	4.2	8.3
68	Cc1ccc(CCNC(=O)C2CCC(=O)N2Cc2ccc(F)cc2)cc1 (centres undefined)	3.8	-5.0	-1.9	0.2	-7.8%	?	-0.2
69	O=C1CN(C(=O)COC(=O)CCC(=O)c2ccc3c(c2)OCCO3)c2ccccc2N1	1.5	-2.1	-2.9	-0.9	-11.2%	-3.5	-6.2
70	Fc1ccccc1CNc1cc(Cl)cc(Cl)c1	-1.4	3.2	-6.1	-4.1	-1.1%	-3.8	0.9
71	CCn1c(=O)cc(OCC(=O)NCCc2ccc(OC)c(OC)c2)c2ccccc21	2.9	-2.5	3.8	-8.6	-2.4%	1.2	-8.7
